gsp antagonist: qHTS for Antagonists of gsp, the Etiologic Mutation Responsible for Fibrous Dysplasia/McCune-Albright Syndrome: qHTS | gsp-mutant cells, cAMP HTRF, 30 min; control for the full effect not named in the record | Potency, µM (series often up to 76.9 µM), without a hit: at the highest dose activity change, negative = inhibition, usual class: inhibitors | hit rate 0.4% among 340,000 | AID 624288, 2012; active = falling curve of any shape with a large fitted effect; inconclusive = falling curve, mostly with a smaller effect; inactive = flat or rising curve; cell line not stated here;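 also: intracellular cAMP measured with PDE inhibitor Ro 20-1724 present during compound exposure; potency is read from the fitted curve at half-maximal effect; % is scaled to controls: 0 for no effect and ±100 for the full control effect; nearly all actives have a fitted effect of over 65% in size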
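Cells, 2000/well, grown 16–24 h in DMEM 10% FBS with 0.5 mg/ml G418, then compounds plus […] (300 uM addition stock), 30 min at 37C. cAMP read by HTRF (cAMP-d2 and anti-cAMP antibody-K in lysis buffer) after 30 min RT.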
TRPV1 PAM: HTS Assay for Compounds that Act as Potentiators of the Vanilloid Receptor 1. potentiation, % at 8.33 µM. hit rate 0.02% among 320,000. TRPV1-expressing cells, Fluo-8 calcium influx, capsaicin EC20 potentiation; host cell line not named in the record; control for the full effect not named in the record. AID 540277, 2011. Transient receptor potential cation channel subfamily V member 1 (Homo sapiens), Q8NER1; active means potentiation above 80%; inconclusive means 30% to 80%; inactive means below 30%; also: 0% is about no effect
Target sequence (Q8NER1 whole entry, looked up): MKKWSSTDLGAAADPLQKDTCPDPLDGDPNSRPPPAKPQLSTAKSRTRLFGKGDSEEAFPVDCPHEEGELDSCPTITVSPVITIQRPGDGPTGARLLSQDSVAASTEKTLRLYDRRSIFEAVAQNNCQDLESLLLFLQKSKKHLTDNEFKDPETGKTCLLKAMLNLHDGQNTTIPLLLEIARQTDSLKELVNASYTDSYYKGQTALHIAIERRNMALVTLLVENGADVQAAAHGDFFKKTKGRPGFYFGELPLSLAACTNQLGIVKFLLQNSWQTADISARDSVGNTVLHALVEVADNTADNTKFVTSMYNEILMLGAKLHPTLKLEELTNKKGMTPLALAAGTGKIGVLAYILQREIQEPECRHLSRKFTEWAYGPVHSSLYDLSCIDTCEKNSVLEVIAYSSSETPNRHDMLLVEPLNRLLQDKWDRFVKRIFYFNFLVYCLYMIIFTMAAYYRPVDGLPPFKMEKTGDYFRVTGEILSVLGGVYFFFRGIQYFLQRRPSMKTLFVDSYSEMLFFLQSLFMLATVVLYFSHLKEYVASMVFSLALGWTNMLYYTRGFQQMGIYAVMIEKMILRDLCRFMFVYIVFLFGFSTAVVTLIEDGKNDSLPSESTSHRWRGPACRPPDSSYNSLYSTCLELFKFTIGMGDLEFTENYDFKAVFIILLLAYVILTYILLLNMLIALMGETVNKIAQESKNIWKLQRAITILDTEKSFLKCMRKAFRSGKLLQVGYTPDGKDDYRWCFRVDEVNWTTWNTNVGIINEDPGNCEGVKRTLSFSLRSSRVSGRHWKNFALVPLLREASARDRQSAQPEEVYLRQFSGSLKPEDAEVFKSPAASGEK
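Cells expressing TRPV1 were dye-loaded with Fluo-8 and read kinetically: 10 s baseline, 3 min after compound (agonist portion), then 2 min after EC20 capsaicin (allosteric enhancer portion). Calcium-bound dye fluorescence at 480/520 nm.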
Menin MLL FP FL: qHTS Assay for Inhibitors Targeting the Menin-MLL Interaction in MLL Related Leukemias: Competition With Fluorescein Labeled MLL-derived Peptide; Fluorescence polarization, fluorescein-MLL peptide displacement from menin; FP activity change, % at 61.4 µM; 290,000 tested, under 10 active; inconclusive = falling polarisation curve, or a change in total fluorescence; inactive = total fluorescence flat and polarisation flat or rising; no compound was filed as active; the % refers to the polarisation; negative = inhibition;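 also: % of control where 0% means no effect; inhibitors lower the polarisation; unlabelled MLL peptide was the positive control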
ClpP mod: qHTS Assay for Activators of ClpP | ATP-dependent Clp protease proteolytic subunit (Bacillus subtilis (strain 168)), P80244 | purified B. subtilis ClpP, FRET peptide cleavage, 20 min | Potency, µM (top dose mostly 57.5 µM), inactives show at the top dose activity change, negative = active | hit rate 1.9% among 340,000 | AID 651965, 2013; active = well fitted falling curve with a large enough effect; inconclusive = small, poorly fitted or top-dose-only effect; inactive = no such curve, though single readings can be large or run the other way; also: potency is read from the fitted curve at half-maximal effect; the source files actives as falling curves though it sought activators and does not explain the sign; nearly all actives have a fitted effect of over 65% in size; many hits overshoot -100%
Target sequence (P80244 whole entry, looked up): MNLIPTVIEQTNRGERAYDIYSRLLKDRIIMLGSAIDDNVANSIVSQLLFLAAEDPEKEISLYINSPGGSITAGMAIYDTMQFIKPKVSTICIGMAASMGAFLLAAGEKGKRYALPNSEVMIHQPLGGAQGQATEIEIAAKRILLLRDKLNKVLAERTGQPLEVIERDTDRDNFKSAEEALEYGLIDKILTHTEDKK
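FRET quenching reversal measured ClpP activation: 10 microg/mL B. subtilis ClpP at pH 8 with the FRET-FV decapeptide, read at 430 nm after 320 nm excitation. The 20-min minus 0-min signal was scaled between DMSO/no-enzyme wells and ADEP (5.8 microM final).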
Sfp PPTase inh: qHTS Assay for Inhibitors of Bacillus subtilis Sfp phosphopantetheinyl transferase (PPTase); 4'-phosphopantetheinyl transferase ffp (Bacillus subtilis), Q9F4F7; Biochemical Sfp PPTase activity, qHTS; Potency, µM, for inactives: max response, negative = inhibition, most hits filed as inhibitors; hit rate 3.5% among 310,000; AID 1490, 2009; active = well fitted inhibition curve with a large enough effect; inconclusive = small, poorly fitted or top-dose-only effect, or another doubt; inactive = no such curve, though single readings can be large or run the other way;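 also: the enzyme is Sfp with the accession as filed and its product quenches rhodamine fluorescence; potency is read from the fitted curve at half-maximal effect; 0% = enzyme reaction without inhibitor and -100% = no enzyme wells; top concentration of the series not given in the record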
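Fluorescence-quenching assay: 15 nM Sfp-PPTase preincubated 15 min at room temperature with compound, then 5 uM rhodamine-CoA and 12.5 uM BHQ-2-labelled YbbR peptide added. Fluorescence (ex 525/em 598 nm) read at start and after 30 min; difference gives rate.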
D2 PAM: Beta-Arrestin HTS for Positive Allosteric Modulators of the Human D2 Dopamine Receptor: Potentiators; potentiation, % (test concentration not listed); hit rate 0.23% among 360,000; AID 624464, 2012; DiscoveRx D2 beta-arrestin cells, luminescence, 90 min; 100% = 57 uM dopamine signal; active = potentiation of 50% or more; inconclusive = 30% to 50%; inactive = 30% or less;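 also: compound concentration not given in the record; tested on top of an EC20 dose of dopamine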
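PathHunter D2 cells, attached overnight at 37 deg C, received compound in DMSO plus dopamine at EC20 (50 nM final) for 90 min at 37 deg C. Beta-arrestin recruitment was read as luminescence after 1 h with detection reagent at ambient temperature.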
gsp agonist: qHTS for Agonist of gsp, the Etiologic Mutation Responsible for Fibrous Dysplasia/McCune-Albright Syndrome: qHTS. gsp mutant cells, cAMP HTRF, 30 min; control for the full effect not named in the record. Potency, µM (series often up to 76.9 µM), for the others: at the highest dose activation (cAMP increase), actives largely listed as activators. hit rate 0.13% among 340,000. AID 624287, 2012; active = well fitted activation curve with a large enough effect; inconclusive = small, poorly fitted or top-dose-only effect, or another doubt; inactive = no such curve, though single readings can be large or run the other way; cell line not stated here;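 also: phosphodiesterase inhibitor Ro 20-1724 added with compounds to block cAMP breakdown; potency is read from the fitted curve at half-maximal effect; nearly all actives have a fitted effect of over 60% in size; about a fifth of the inactives were tested at one dose only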
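Cells stably selected in G418 were plated at 2000/well, grown 16-24 hr, then given compounds in DMSO with the PDE inhibitor […] (300 uM solution added) for 30 min at 37C; cAMP was read by HTRF.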
* hit, by the source's call; u = inconclusive; x = not tested or not shown; & = joins results of further samples; [ ] = dose if it differs, or a comment. This is a random part of the collection; 5.1% or so of the library scored in one or more.

smiles	gsp antagonist	TRPV1 PAM	Menin MLL FP FL	ClpP mod	Sfp PPTase inh	D2 PAM	gsp agonist
N=c1sccn1CC(=O)NC(c1ccccc1)c1ccccc1	4%	11	-1.5	x	-2%	-6	5%[15.4 µM]
COc1ccccc1CN1CC(C(=O)NC2(c3ccccc3)CC2)CCC1=O (stereo not given)	10%	-16	2.6	32µM*	12%	12	-26%
CC1=CS/C(=C(/C#N)C(=O)N2CCCCC2)N1c1ccccc1	2%	1	3.0	-2.0%	5%	14	-45%[inhibitor]
CN(C(=O)c1cccc(NC(=O)Cc2ccc(NC(=O)C3CCCN(C(=O)C4CCCCC4)C3)cc2)c1)C1CC1 (stereo not given)	3%	x	x	2.2%	x	1	x
C#CCNC(=O)C1=C[C@H](c2ccc3c(c2)OCO3)[C@@H](CCCO)[C@H](OCC)O1	-8%	-10	-7.2	0.3%	13%	26	x
O=C(NCCCCc1ccccc1)Nc1cccc(F)c1	-8%	-6	-1.0	2.3%	1%	-14	-36%
COc1ccc(/C(O)=C2/C(=O)C(=O)N(CCN(C)C)C2c2ccc(C)cc2)cc1Cl (stereo not given)	5%	-18	-6.4	-1.4%	-2%	-9	u
O=C(NC1(C(F)(F)F)C(=O)Nc2c1c(=O)[nH]c(=O)n2-c1ccccc1)c1ccncc1 (stereo not given)	-2%	x	x	0.1%	x	-6	26%
O=C(Cn1cc(C(=O)COc2ccccc2)c2ccccc21)NCc1ccco1	0%	1	12	-0.4%	u	6	-4%
Cc1ccc(NC(=O)Nc2ccc3c(c2)CCC3)cc1	3%	-2	x	-2.3%	14%	-10	u
CCCCCCN(C(=O)CCCCCN1C(=O)NC(c2ccc(-c3ccccc3)cc2)C(C(=O)OCc2ccccc2)=C1C)C(C)C(=O)NCCCC (stereo not given)	x	4	-0.9&2.6	x	11%&16%	x	x
COc1ccc(NC(=S)NN2C(C)CCCC2C)cc1 (stereo not given)	10%	-1	2.1	2.0%	13%	-6	-9%[15.4 µM]
N#Cc1ccc(Cn2c(=O)oc3ccccc32)cc1	12%	27	0.5	-1.3%	7%	-1	-1%[15.4 µM]
Cc1nc2ccccc2c(=O)n1CCCN1CCOCC1	10%	4	-1.8	0.6%	23%	-4	-2%
OCCNCCCCOc1ccc(F)cc1	6%	2	3.6	-2.0%	2%	-15	21%
CS(=O)(=O)N1CCc2cc(C(=O)O)ccc21	6%	2	2.8	1.9%	25%	1	13%
O=C(Nc1ccc2c(c1)OCO2)C1CCN(S(=O)(=O)c2cccs2)CC1	-15%	-10	5.8	-4.5%	6%	0	0%
Cc1cc(C)nc(SCc2nc3nc(C)cc(C)n3c2Br)n1	18%	-2	1.9	28µM*	0%	10	-3%
C[C@H]1CN([C@@H](C)CO)S(=O)(=O)c2ccc(C#Cc3cccnc3)cc2O[C@@H]1CN(C)C(=O)Nc1ccc2c(c1)OCO2	x	x	x	0.5%	x	2	-34%[inhibitor]
O=C(C[n+]1ccn(CCCNP2(=O)C=C(c3ccccc3)OC(c3ccccc3)=C2)c1)c1cccs1	14%	8	-5.7	-0.5%	-10%	-21	u
COc1ccc(N=C(C)C2=C(O)c3ccccc3C2=O)cc1	-55%	-23	7.1	0.5%	-12%	-19	7%
O=C(Nc1ccc(Cl)cn1)c1cc2c(s1)-c1ccccc1OC2	3%	x	-0.3	3.8%	0%	-23	u
O=C(CCSCCc1ccccn1)Nc1c(F)cc(F)cc1Br	17%	-5	-0.9	5.4%	-3%	-7	-48%[inhibitor]
CC(C)(C)NC(=O)C(Cc1ccccc1)NS(=O)(=O)c1ccc2c(c1)CCC(=O)N2 (stereo not given)	1%	-15	2.5	-5.7%	9%	2	-5%
N#CC1=C2SCN(Cc3ccco3)CN2C(=O)CC1c1c(F)cccc1Cl (stereo not given)	-6%	17	u	-0.4%	2.8µM*	-4	2%

The results go on:
smiles	gsp antagonist	TRPV1 PAM	Menin MLL FP FL	ClpP mod	Sfp PPTase inh	D2 PAM	gsp agonist
Cc1ccc(S(=O)(=O)NCC(=O)N(CC(=O)NCc2ccco2)C2CCCC2)cc1	10%	-23	-9.2	x	8%	-8	-3%[15.4 µM]
Cn1cccc1Cc1nnc(SCC(=O)NCc2ccco2)n1CCc1ccccc1	-12%	u	6.6	3.4%	-9%	1	5%
CC(/C=C/C=C/c1ccccc1)=N/NC(=O)CNc1ccccc1C	1%	4	2.0	-5.2%	6%	-3	-5%
COC(=O)CCCN=C1SCCN1Cc1ccccc1	7%	3	-3.0	x	12%	-17	-32%[inhibitor]
CSC1=C(C#N)C(c2sccc2C)CC(=O)N1 (stereo not given)	6%	-5	-5.4	x	30%[activator]	-5	-2%
Cc1ccc(OCC(=O)O/N=C(\N)Cc2ccc([N+](=O)[O-])cc2)cc1C	-6%	7	-0.5	-6.1%	0%	-4	-5%[15.4 µM]
CS(=O)(=O)c1ccc(C(=O)NCc2ccccc2F)cc1	13%	2	-1.5	0.4%	17%	11	-2%[15.4 µM]
CCOc1ccc(N2C(=O)CC(N3CCC(NC(=O)Nc4ccccc4)CC3)C2=O)cc1 (stereo not given)	7%	-18	-1.0	1.2%	8%	-20	-14%
COc1ccc(/C(C)=N/Nc2nc3ccccc3n3cnnc23)cc1OC	-14%	-2	6.3	-1.0%	14%	-2	-16%[15.4 µM]
COC(=O)c1cc(C(=O)Nc2cccc(C)n2)cc([N+](=O)[O-])c1	-9%	-2	1.0	0.7%	27%	4	3%
O=C1CC(c2ccco2)CC(O)=C1C=NCC1CCNCC1 (stereo not given)	32%	6	-1.6	-0.9%	-4%	-19	-17%
COc1cc(CNn2cn[nH]c2=S)cc(Br)c1OCc1ccccc1F	-42%	-19	-0.3	1.6%	-16%	-1	-22%
COc1cccc(-c2nc(CS(=O)CC(=O)NCCc3ccc(C)cc3)c(C)o2)c1 (stereo not given)	-3%	12	4.3	-18%	28%	-8	-34%[inhibitor]
C=CCOn1c(=O)c(-c2ccc(Cl)cc2)[n+]([O-])c2ccccc21	3%	19	-1.5	-3.2%	14%	-14	-18%
CC(NC(=O)/C(=C\c1cccc([N+](=O)[O-])c1)NC(=O)c1ccco1)C(=O)O (stereo not given)	9%	-3	-1.0	0.2%	79µM*	2	18%
CCOc1ccc(S(=O)(=O)Nc2ccc(S(=O)(=O)Nc3cc(OC)ccc3OC)cc2)cc1	-9%	11	2.0	-2.3%	13%	5	34%
O=C(C(c1ccccc1)c1ccccc1)N1CCOCC1	-8%	-9	2.1	-0.5%	18%	6	-21%
CCOC(=O)c1cc2c(=O)n3cccc(C)c3nc2n(Cc2ccccc2Cl)c1=N	x	-14	0.7	x	11%	x	x
CC1=C(C(=O)OCc2ccccc2)C(c2ccc(C#N)cc2)NC(=O)N1CCCC(=O)O (stereo not given)	0%	6	-0.5	3.1%	1%	-1	-1%
CCCCCCSc1cc(-c2nc3ccc(Cl)cn3c2NC2CCCCC2)ccc1OC	6%	1	x	61%	x	1	x
O=C(O)c1ccccc1C(=O)NCCCn1ccnc1	-5%	-8	-6.8	-0.8%	2%	-3	8%[15.4 µM]
N/C(Cc1nc(-c2ccc(Br)cc2)cs1)=N\O	9%	-14	-2.8	x	19%	-4	22%
COc1ccc(-n2nc(C(=O)NCC(=O)NCCCN3CC(C)CC(C)C3)c3ccccc3c2=O)cc1 (stereo not given)	6%	-3	-5.4	x	13%	-8	19%[15.4 µM]
CS(=O)(=O)N(CC(=O)Nc1ccc(Br)cc1)C1CCCCC1	-29%	-23	2.5	-0.5%	19%	-33	8%[15.4 µM]
COc1ccc(-c2oc3c(OC)c(OC)c(OC)c(O)c3c(=O)c2OC)cc1OC	13%	6	1.7	-1.6%	5%	28	x
CCN(Cc1nc(-c2ccc(Cl)cc2)no1)CC1CCCO1 (stereo not given)	10%	0	-1.4	x	4%	-1	0%
CCN(CC)C(=O)COc1coc(CN2CCN(c3ccccc3)CC2)cc1=O	9%	18	x	-2.3%	13%	-9	3%
COC(=O)c1cc(NC(=O)Cc2cc(OC)c(OC)c(OC)c2)cc(C(=O)OC)c1	x	-1	-0.6	x	9%	-27	-4%[15.4 µM]

Among those listed so far, 4 contain a thiophene ring, fused or not.
smiles	gsp antagonist	TRPV1 PAM	Menin MLL FP FL	ClpP mod	Sfp PPTase inh	D2 PAM	gsp agonist
O=C(Nc1ccc2c(c1)OCO2)C1CCN(S(=O)(=O)c2cccs2)CC1	-15%	-10	5.8	-4.5%	6%	0	0%
O=C(C[n+]1ccn(CCCNP2(=O)C=C(c3ccccc3)OC(c3ccccc3)=C2)c1)c1cccs1	14%	8	-5.7	-0.5%	-10%	-21	u
O=C(Nc1ccc(Cl)cn1)c1cc2c(s1)-c1ccccc1OC2	3%	x	-0.3	3.8%	0%	-23	u
CSC1=C(C#N)C(c2sccc2C)CC(=O)N1 (stereo not given)	6%	-5	-5.4	x	30%[activator]	-5	-2%

Entries listed above shown as hits in Sfp PPTase inh.
Molecule	gsp antagonist	Menin MLL FP FL	Sfp PPTase inh	D2 PAM	gsp agonist
N#CC1=C2SCN(Cc3ccco3)CN2C(=O)CC1c1c(F)cccc1Cl (stereo not given)	-6%	u	2.8µM*	-4	2%
CC(NC(=O)/C(=C\c1cccc([N+](=O)[O-])c1)NC(=O)c1ccco1)C(=O)O (stereo not given)	9%	-1.0	79µM*	2	18%
